D2 potentiator – positive allosteric modulators of human D2 dopamine receptor; DiscoveRx D2 beta-arrestin cells, luminescence, 90 min; 100% = 57 uM dopamine signal; potentiation, % (no concentration beside the values); actives 0.23% (n = 360,000); AID 624464; P14416; active = potentiation of 50% or more; inconclusive = 30% to 50%; inactive = 30% or less;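 also: compound concentration not given in the record; tested on top of an EC20 dose of dopamine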
Target sequence (P14416 whole entry, looked up): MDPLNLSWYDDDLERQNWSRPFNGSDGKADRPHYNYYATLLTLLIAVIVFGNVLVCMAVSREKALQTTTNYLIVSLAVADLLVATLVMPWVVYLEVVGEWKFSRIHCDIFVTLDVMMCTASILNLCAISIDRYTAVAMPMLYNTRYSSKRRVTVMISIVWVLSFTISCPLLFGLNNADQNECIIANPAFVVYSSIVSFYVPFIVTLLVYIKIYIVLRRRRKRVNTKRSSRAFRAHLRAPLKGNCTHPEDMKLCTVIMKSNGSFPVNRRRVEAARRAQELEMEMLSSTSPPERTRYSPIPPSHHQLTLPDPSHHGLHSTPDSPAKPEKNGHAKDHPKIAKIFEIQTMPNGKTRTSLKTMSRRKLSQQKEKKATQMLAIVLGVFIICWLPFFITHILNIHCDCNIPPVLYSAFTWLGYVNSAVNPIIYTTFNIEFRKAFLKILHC
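PathHunter D2 cells, attached overnight at 37 deg C, received compound in DMSO plus dopamine at EC20 (50 nM final) for 90 min at 37 deg C. Beta-arrestin recruitment was read as luminescence after 1 h with detection reagent at ambient temperature.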
Sfp inh – blocks B. subtilis Sfp PPTase activity; Q9F4F7; Biochemical Sfp PPTase activity, qHTS; Potency, µM, for the others: max response, negative = inhibition, most hits filed as inhibitors; actives 3.5% (n = 310,000); AID 1490; active = well fitted inhibition curve with a large enough effect; inconclusive = small, poorly fitted or top-dose-only effect, or another doubt; inactive = no such curve, though single readings can be large or run the other way;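 also: the enzyme is Sfp with the accession as filed and its product quenches rhodamine fluorescence; potency is read from the fitted curve at half-maximal effect; 0% = enzyme reaction without inhibitor and -100% = no enzyme wells; top concentration of the series not given in the record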
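Reaction rates are the 30-min fluorescence difference (ex 525, em 598 nm) in wells containing 15 nM Sfp, 5 uM rhodamine-CoA and 12.5 uM BHQ-2-YbbR at pH 7.6 with 10 mM MgCl2.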
PINK1 modulator – modulators of PINK1 expression; PINK1 immunofluorescence, high-content cytometry, 24 h; Potency, µM (doses to about 76.6 µM), without a hit: at the highest dose activation (PINK1 increase), usual class: activators; actives 0.2% (n = 410,000); AID 624263; active = well fitted activation curve with a large enough effect; inconclusive = small, poorly fitted or top-dose-only effect; inactive = flat fitted curve, though single readings scatter; cell line not stated here;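 also: potency is read from the fitted curve at half-maximal effect; % of control where 0% means no effect; nearly all actives have a fitted effect of over 65% in size; a mitochondrial uncoupler was the plate control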
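Stable cell line, 250 cells/well, 12 h attachment; compounds pinned at 5 concentrations, 24 h; CCCP control. Fixed with nuclear dye, primary antibodies 12 h at 10 degrees C, secondary plus cell stain; laser-scanning cytometer read.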
D2 ag – human D2 receptor agonism in beta-arrestin assay. P14416. DiscoveRx PathHunter D2 beta-arrestin, luminescence, 90 min; 100% = 57 uM dopamine signal. activation, % (concentration not given with the values). actives 0.084% (n = 360,000). AID 624465; in the data active = activation above about 40%; inconclusive = about 15% to 40%; inactive = below about 15%; also: compound concentration not given in the record; the text of the record calls up to 30% inactive
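Agonist mode: compounds alone added to overnight-plated D2 PathHunter cells for 90 min at 37 C, with 57 uM final dopamine (EC100) defining full response. Beta-arrestin recruitment detected by chemiluminescent reagent, read after 1 h at ambient temperature.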
TRPV1 PAM – potentiators of human vanilloid receptor 1 (TRPV1); Q8NER1; TRPV1-expressing cells, Fluo-8 calcium influx, capsaicin EC20 potentiation; host cell line not named in the record; control for the full effect not named in the record; potentiation, % at 8.33 µM; actives 0.02% (n = 320,000); AID 540277; active means potentiation above 80%; inconclusive means 30% to 80%; inactive means below 30%; also: 0% is about no effect
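Cells expressing TRPV1 were dye-loaded with Fluo-8 and read kinetically: 10 s baseline, 3 min after compound (agonist portion), then 2 min after EC20 capsaicin (allosteric enhancer portion). Calcium-bound dye fluorescence at 480/520 nm.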
Six1-Eya2 inh – blocks human Six1 binding to Eya2; actives 0.56% (n = 360,000); AID 651725; AlphaScreen GST-Six1/His-Eya2 binding, biochemical; stronger effect = lower value; control for the full effect not named in the record; activity change, % (concentration not given with the values); Q15475+O00167; in the data active = activity change below about -65%; inconclusive = about -30% to -65%; inactive = above about -30%; also: % is scaled to controls: 0 for no effect and ±100 for the full control effect
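AlphaScreen with GST-Six1 and His-Eya2 (5X mix: 250 nM and 500 nM), glutathione donor and nickel acceptor beads; buffer 50 mM Tris pH 8.0, 300 mM NaCl, 1 mM TCEP; 1 h at 37 C in the dark.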
CtBP-E1A inh – CtBP/E1A binding inhibition. actives 0.49% (n = 340,000). AlphaScreen GST-E1A/His-CtBP binding, 1536-well; stronger effect = lower value; control for the full effect not named in the record. activity change, % (no concentration beside the values). AID 651724; in the data active means activity change below about -65%; inconclusive means about -30% to -65%; inactive means above about -30%; also: % is scaled to controls: 0 for no effect and ±100 for the full control effect; compound concentration not given in the record
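GST-E1A and His-tagged CtBP (125 nM each as 5X stock) were preincubated with pin-transferred compound for 2 h at 37 °C in the dark, then glutathione donor and nickel acceptor beads were added for 1 h before AlphaScreen reading.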
Starred values were filed as active, the others as inactive; ? = inconclusive; / = no result given; & = joins results of further samples; [ ] = dose if it differs, or a comment.

SMILES	D2 potentiator	Sfp inh	PINK1 modulator	D2 ag	TRPV1 PAM	Six1-Eya2 inh	CtBP-E1A inh
CC(C)C[C@H]1CN=C(Nc2ccccc2)N1CCc1cccc(F)c1	-31	/	0.5%	-1.9	/	13	-19
CCOCCCN(C(=O)CCC(=O)Nc1cc(C)on1)C(C(=O)NC(C)(C)CC)c1cccc(OC)c1OC (stereo not drawn)	-2	6%	2.0%	-4.0	-1	0	-18
CN1CCN(S(=O)(=O)c2ccc(N3CCN(c4ccccc4Cl)CC3)nc2)CC1	-2	/	2.5%	1.9	-3	3	9
O=C(O)c1ccccc1N=Cc1c(O)n(-c2nccs2)c(=O)c2ccccc12	20	11%	-0.7%	13	-12	-30	-17
COc1cccc(CNC(=O)C2CCN(c3cnccn3)CC2)c1	0	8%	-1.0%	0.6	8	0	3
Cc1ccc(C(=O)OCC(=O)c2c[nH]c3ccccc23)cc1S(=O)(=O)N1CCCCC1	5	-1%	1.1%	4.8	-2	-10	0
CC(C)NC(=O)CSc1nnc(-c2ccncc2)n1-c1ccccc1	-16	1%	0.3%	1.0	1	4	18
CCCNC(=O)c1ccc(COc2cccc3ccccc23)o1	0	-6%	0.8%	3.4	-11	4	/
O=C(NCCCn1ccnc1)c1cccc(S(=O)(=O)Nc2ccc(Br)cc2)c1	-24	/	0.8%	-4.8	-23	2	-3
NC(=O)c1nsc(C(=O)N(Cc2ccccc2Cl)C(C(=O)NCC2CCCO2)c2ccc(O)cc2)c1N (stereo not drawn)	-2	-1%	0.0%	-0.9	12	6	2
O=C1c2ccccc2C(=O)N1CCc1c[nH]c2ccccc12	-9	-12%	0.9%	-1.2	23	-10	/
O=C(CSc1nc2c(sc3ccccc32)c(=O)n1CCCN1CCOCC1)NC1CCCC1	-7	6%	-0.9%	0.2	4	3	-1
COCC(=O)N1C[C@H]2CON(C)[C@H]2C[C@H]1c1cccc(-c2ccccc2)c1	4	/	2.5%	-10	/	-1	2
CCC(C)NC(=O)CN(c1cc(Cl)cc(Cl)c1)S(C)(=O)=O (stereo not drawn)	0	12%	0.0%	-3.9	-3	0	/
COc1cc(C#Cc2c(-c3ccccc3)n(C)c3ccccc23)cc(OC)c1	-3	0%	-0.4%	-4.1	10	29	29
COC(=O)C1C/C(=N\NS(=O)(=O)c2ccc(C)cc2)c2sccc2C1 (stereo not drawn)	-19	6%	-1.2%	-2.7	-4	-1	2
Cc1ccc(S(=O)(=O)N2CCN(C(=O)COC(=O)C3CC3C)CC2)c(C)c1 (stereo not drawn)	0	/	0.7%	1.5	4	2	2
O=C(Nc1ccccc1C(F)(F)F)Nc1cccc2ccccc12	-11	-40%	29%[38.3 µM]	-1.0	6	1	8
NC(=O)c1cccc(-c2coc3c(C(=O)NCCc4ccccc4)cccc23)c1	-2	/	4.3%	3.8	/	-27	-20
COc1ccccc1/C=C/C(=O)Nc1ccc(S(=O)(=O)Nc2cc(C)on2)cc1	1	16%	-1.0%	-4.8	3	?	-27
COc1ccc(NC(=O)c2cc(-c3ccco3)nc3ccccc23)cc1S(=O)(=O)N1CCOCC1	24	5µM*	3.8%	-0.8	21	-21	-6
C=CC[C@H](CC(=O)NCCO)C(=O)N[C@@H](COC(=O)[C@H](CC=C)CC(=O)OC(C)(C)C)Cc1c[nH]c2ccccc12	-3	/	-0.3%	5.6	/	-1	-1
CCOc1ccc(S(=O)(=O)N2CCNC(=O)C2)cc1	-4	/	0.8%	-2.6	2	3	-18
CN1CCN(c2ncnc3c2ncn3[C@H]2CN(C)C[C@@H](CO)O2)CC1	-2	/	1.4%	-5.1	/	-4	6
O=C(CSCSCC(=O)Nc1ccc2c(c1)OCO2)Nc1ccc2c(c1)OCO2	-4	9%	-0.8%[38.3 µM]	-2.3	-22	-7	-3
CC(=O)Nc1cccc(NC(=O)c2cc(C)on2)c1	-13	25%	0.0%[38.3 µM]	-1.2	-8	3	3
COc1cc2c(c(OC)c1OC)CC(=O)N(C)CC2	15	18%	-1.2%	-3.1	-11	15	-2
CCCCCNc1nc(N2CCCC2)c2c(c1C#N)CCN(C)C2	-27	-3%	5.5%	-3.9	-11	-4	-25
Cc1noc(NS(=O)(=O)c2ccc(NC(=O)CC34CC5CC(CC(Br)(C5)C3)C4)cc2)c1C	10	30%	3.2%	0.2	-10	-4	-4
Cc1cc(=O)[nH]c2c1c(=O)[nH]n2C1CC(C)N(C)CC1C (stereo not drawn)	3	10%	0.3%	-0.9	-11	-3	-1
Cc1ccc(S(=O)(=O)NCC(=O)N(CC(=O)NCC2CCCO2)Cc2ccc(Cl)cc2)cc1 (stereo not drawn)	-4	14%	7.2%	6.0	0	4	7
Cc1ccc(S(=O)(=O)NCCC(=O)Nc2ccc3c(c2)OCO3)cc1	-26	15%	0.6%	-3.3	-4	19	-1
Cc1noc(C)c1C(=O)OCC(=O)Nc1ccc(C(N)=O)cc1	-3	19%	0.4%	-2.3	-3	16	-3
CC(C)Oc1ccc(C2CC(=O)NC3=C2C(=O)CCC3)cc1 (stereo not drawn)	-27	14%	-3.0%	-1.1	14	12	-2
CCN(CC)C(=S)Nc1ccc2nc3n(c(=O)c2c1)CCCCC3	-5	19%	-0.6%	-2.5	1	-2	5
CCN1C(=S)N[C@@H](c2cccs2)C(C(=O)OC)=C1C	-4	-8%&24%	1.9%	-6.6	?	5	-1
Cc1ccc(CNC(=O)CCSCc2ccccc2C)cc1	1	-21%	0.4%	-3.0	-27	4	4
CCOC(=O)c1c(NC(C)=O)sc2c1C1CCN2CC1	-6	/	0.4%	-1.4	/	1	0
CS(=O)(=O)c1[nH]nc(-c2ccccc2Cl)c1C#N	0	13%	0.8%	-2.2	-42	3	19
CCCCOc1nc2ccccc2nc1C(C#N)C(=O)NC1CCCCC1 (stereo not drawn)	?	18%	1.4%	-1.2	-13	-7	-1

Three of the compounds above, with each value named.
CCOC(=O)c1c(NC(C)=O)sc2c1C1CCN2CC1
  D2 potentiator = -6
  Sfp inh = /
  PINK1 modulator = 0.4%
  D2 ag = -1.4
  TRPV1 PAM = /
  Six1-Eya2 inh = 1
  CtBP-E1A inh = 0

CS(=O)(=O)c1[nH]nc(-c2ccccc2Cl)c1C#N
  D2 potentiator = 0
  Sfp inh = 13%
  PINK1 modulator = 0.8%
  D2 ag = -2.2
  TRPV1 PAM = -42
  Six1-Eya2 inh = 3
  CtBP-E1A inh = 19

CCCCOc1nc2ccccc2nc1C(C#N)C(=O)NC1CCCCC1 (stereo not drawn)
  D2 potentiator = ?
  Sfp inh = 18%
  PINK1 modulator = 1.4%
  D2 ag = -1.2
  TRPV1 PAM = -13
  Six1-Eya2 inh = -7
  CtBP-E1A inh = -1

Remaining list, next part:
SMILES	D2 potentiator	Sfp inh	PINK1 modulator	D2 ag	TRPV1 PAM	Six1-Eya2 inh	CtBP-E1A inh
Cc1noc(C)c1-c1ccc(C(=O)NCCc2ccccc2)c2occc12	-4	/	7.0%	-3.5	/	?	?
COCCCn1c(=N)c(C(=O)NCC2CCCO2)cc2c(=O)n3ccccc3nc21 (stereo not drawn)	-18	-10%	1.8%	-8.2	7	-8	-6
CCOc1ccccc1NC(=O)CN1C(=O)C(C)SC(C)C1=O (stereo not drawn)	4	14%	-0.9%	-5.2	3	14	20
CC(=NCCCn1ccnc1)c1c(O)n(Cc2ccccc2)c(=O)[nH]c1=O	-3	3%	-0.9%	-3.8	2	-2	-3
CC1C(c2ccccc2)OCCN1C=NC#N (stereo not drawn)	-3	/	-0.6%	-5.2	/	-1	2
Cc1nc2ccccc2n1Cc1ccc(Br)cc1	-3	/	-0.8%	4.1	/	3	8
COc1ccc2[nH]c(=O)c(CN(C(C)=O)c3cc(C)ccc3C)cc2c1	-5	/	1.7%	-1.8	/	-6	2
Cc1ccc(S(=O)(=O)N2CCOCC2)cc1NC(=O)CSc1nnnn1C1CCCC1	-1	/	1.5%	-0.9	3	-4	/
O=C([C@@H]1CCCN1C1=NS(=O)(=O)c2ccccc21)N1CCN(c2ccccc2)CC1	-6	/	0.1%	-3.7	/	-1	-1
O=[N+]([O-])c1ccc(S(=O)(=O)NCCc2cn3ccccc3n2)cc1	0	7%	0.0%	-1.9	-3	7	0
CC(=O)Nc1ccc(C(=O)NNC(=O)c2ccc(Cl)cc2Cl)cc1	-2	28%	0.5%	-2.6	19	-4	-3
O=C(COC(=O)c1n[nH]c2ccccc12)Nc1ccc([N+](=O)[O-])cc1	-5	0%	-3.2%	-2.0	4	-10	-4
COc1ccc(C(=O)NCC(=O)OCC(=O)NCc2ccco2)cc1	15	/	0.9%	2.7	/	-2	/
Cc1n[nH]c(C)c1CCC(=O)N/N=C/c1cccc([N+](=O)[O-])c1	-6	18%	4.5%	-1.2	3	-5	-2
Oc1ccc(C2C(c3ccccc3)=NN=C(c3ccccc3F)N2O)c(O)c1 (stereo not drawn)	-5	-7%	0.8%	-8.1	3	-16	-2
OC(COc1cccc2ccccc12)CN1CCCC1 (stereo not drawn)	-11	9%	-2.3%	-1.1	?	0	-2
O=C(NCCCN1CCCC1=O)Nc1ccc(F)c(Cl)c1	-14	24%	0.9%[38.3 µM]	-1.6	-5	5	-6
CCC1(C)Cc2ccccc2-c2nc(-c3ccccc3)oc(=O)c21 (stereo not drawn)	-14	-9%	8.7%	-2.4	-5	14	23
Cc1ccc(C(=O)NC(C(=O)NC2CCCC2)c2ccccc2)cc1 (stereo not drawn)	-6	10%	-0.1%	3.3	-6	5	8
COC(=O)C(Cc1ccc(O)cc1)NC(=O)c1ccccc1 (stereo not drawn)	-2	8%	4.3%[38.3 µM]	1.4	3	2	2
O=C(Oc1ccccc1)N1CCN(c2ccccc2F)CC1	-8	-11%	0.4%	0.9	-6	25	-16
CCCCn1c(SCC(=O)NC2CC2)nc2cc(C(=O)OC)ccc2c1=O	-5	/	3.4%	-0.4	/	-1	4
Cc1cc(C)nc(/N=C(\N)Nc2ccc(CC(=O)OC(C)C)cc2)n1	-26	14%	0.5%	4.0	-8	-1	-8
Cc1ccc(S(=O)(=O)N2CCOCC2)cc1NC(=O)c1cccc(S(=O)(=O)N2CCCC2)c1	-7	22%	0.0%	4.1	-18	3	-8
COc1ccc(NC(=S)N2CCN(Cc3ccccc3)CC2)cc1	-7	19%	0.4%	0.0	22	-2	0
CCOc1c(C)cnc2c1c(=O)n(Cc1c(F)cccc1Cl)c(=O)n2C	-13	10%	3.8%	2.2	-5	5	5
O=C(CNC(=S)N(Cc1ccccc1)Cc1ccccc1F)NCc1ccc(Cl)cc1	3	17%	30%	6.6	8	0	0
Cc1ccc(CC(C)(O)CC(C)(O)Cc2ccc(C)cc2)cc1 (stereo not drawn)	-13	/	5.7%	-5.1	/	16	-20
